# Compound activity from PubChem BioAssay.
# TRPV1 potentiator: potentiators of human vanilloid receptor 1 (TRPV1) | Q8NER1 | TRPV1-expressing cells, Fluo-8 calcium influx, capsaicin EC20 potentiation; host cell line not named in the record; control for the full effect not named in the record | potentiation, % at 8.33 µM | 320,000 tested, 0.02% active | AID 540277; active means potentiation above 80%; inconclusive means 30% to 80%; inactive means below 30%; note: 0% is about no effect
#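 Fluo-8 calcium influx in TRPV1-expressing cells, kinetic read (ex 480/em 520 nm). Compound added and read 3 min for agonist activity, followed by capsaicin at EC20 final and 2 min further read for enhancement.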
# Six1-Eya2 blk: Six1/Eya2 interaction inhibition; activity change, % (test concentration not listed); Q15475+O00167; AlphaScreen GST-Six1/His-Eya2 binding, biochemical; active compounds read low; control for the full effect not named in the record; 360,000 tested, 0.56% active; in the data active = activity change below about -65%; inconclusive = about -30% to -65%; inactive = above about -30%; note: % is set by controls: 0 for no effect and ±100 for the full control effect
#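 Compounds are tested against tagged Six1 and Eya2 proteins bridged by glutathione donor and nickel acceptor beads; after a one-hour incubation at 37 °C without light, AlphaScreen emission is recorded.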
# TRPML1 agonist: human mucolipin-1 channel agonism; 410,000 tested, 0.12% active; activation, % (no concentration beside the values); Q9GZU1; TRPML1-expressing cells, Ca2+ dye fluorescence, FDSS; host cell line not named in the record; reference of the full effect not given here; in the data active = activation above about 50%; inconclusive = about 30% to 50%; inactive = below about 30%; note: 0% is about no effect; the text of the record puts the active cut at 80%
# Target sequence (Q9GZU1 whole entry, looked up): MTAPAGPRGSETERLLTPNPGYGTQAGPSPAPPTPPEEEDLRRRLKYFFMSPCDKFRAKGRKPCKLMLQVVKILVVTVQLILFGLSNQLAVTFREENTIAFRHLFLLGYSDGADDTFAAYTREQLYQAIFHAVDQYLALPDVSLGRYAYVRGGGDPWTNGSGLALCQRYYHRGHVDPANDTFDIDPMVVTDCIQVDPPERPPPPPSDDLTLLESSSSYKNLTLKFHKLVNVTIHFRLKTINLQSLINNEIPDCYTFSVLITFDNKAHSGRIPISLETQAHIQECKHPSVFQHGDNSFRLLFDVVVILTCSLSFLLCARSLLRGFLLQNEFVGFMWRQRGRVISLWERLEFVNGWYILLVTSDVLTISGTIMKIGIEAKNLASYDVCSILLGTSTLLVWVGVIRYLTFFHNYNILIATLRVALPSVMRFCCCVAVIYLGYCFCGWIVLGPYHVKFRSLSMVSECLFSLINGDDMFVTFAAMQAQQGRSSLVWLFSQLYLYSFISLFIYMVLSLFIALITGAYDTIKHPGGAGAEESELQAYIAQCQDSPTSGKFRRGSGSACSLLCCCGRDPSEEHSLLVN
#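 In this qHTS format, compounds were pin-transferred onto Ca8-dye-loaded TRPML1-DL cells induced with Tet overnight, and intracellular Ca2+ fluorescence was recorded kinetically for 110 s after a 10 s baseline. A subsequent 4uM final 54-4 (EC80) addition followed by a second 110 s read served as the antagonist phase.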
# TRPML1 inh: inhibitors of human TRPML1 channel; TRPML1-inducible cells, Ca2+ dye fluorescence, FDSS; active compounds read low; inhibition of EC80 agonist-evoked calcium signal; activity change, negative = inhibition, % (no concentration beside the values); 390,000 tested, 0.02% active; in the data active means activity change below about -50%; inconclusive means about -30% to -50%; inactive means above about -30%;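 note: stimulus is agonist 54-4 at its EC80 concentration; % is set by controls: 0 for no effect and ±100 for the full control effect; compound concentration not given in the record; the text of the record puts the active cut at -80%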
#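 Tet-induced TRPML1-DL cells loaded with Ca8 no-wash calcium dye were read kinetically on FDSS. Compound addition was followed by EC80 agonist 54-4 (4 uM final); inhibition was read over 110 s.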
# CtBP-E1A inh: CtBP/E1A binding inhibition; AlphaScreen GST-E1A/His-CtBP binding, 1536-well; active compounds read low; control for the full effect not named in the record; 340,000 tested, 0.49% active; activity change, % (no concentration beside the values); AID 651724; in the data active means activity change below about -65%; inconclusive means about -30% to -65%; inactive means above about -30%; note: % is set by controls: 0 for no effect and ±100 for the full control effect
#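 Homogeneous bead-based format: GST-tagged E1A captured on glutathione donor beads, His-tagged CtBP on nickel acceptor beads; compounds precede bead addition by 2 h at 37 °C.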
# D2 PAM: positive allosteric modulators of human D2 dopamine receptor | P14416 | DiscoveRx D2 beta-arrestin cells, luminescence, 90 min; 100% = 57 uM dopamine signal | potentiation, % (no concentration beside the values) | 360,000 tested, 0.23% active; active = potentiation of 50% or more; inconclusive = 30% to 50%; inactive = 30% or less;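 note: compound concentration not given in the record; tested on top of an EC20 dose of dopamine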
# Target sequence (P14416 whole entry, looked up): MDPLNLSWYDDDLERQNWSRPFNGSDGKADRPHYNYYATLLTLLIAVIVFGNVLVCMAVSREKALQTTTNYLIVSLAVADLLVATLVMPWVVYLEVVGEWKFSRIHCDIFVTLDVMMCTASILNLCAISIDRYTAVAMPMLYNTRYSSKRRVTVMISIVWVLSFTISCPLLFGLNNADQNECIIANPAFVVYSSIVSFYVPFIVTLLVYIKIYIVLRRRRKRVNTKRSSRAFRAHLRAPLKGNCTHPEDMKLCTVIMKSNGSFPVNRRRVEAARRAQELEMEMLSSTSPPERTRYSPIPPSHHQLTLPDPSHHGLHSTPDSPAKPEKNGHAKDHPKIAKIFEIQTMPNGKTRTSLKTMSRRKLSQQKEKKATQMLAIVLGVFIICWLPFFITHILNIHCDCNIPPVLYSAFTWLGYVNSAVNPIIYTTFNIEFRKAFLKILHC
#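 D2 cells co-treated with compound plus 50 nM dopamine (EC20) for 90 min at 37 deg C to detect potentiation. Beta-arrestin recruitment was read as enzyme-fragment luminescence after 1 h at ambient temperature. Full response was set by 57 uM dopamine.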
# * marks the source's active call; other numbers are inactive results; ? = inconclusive; · = not tested or not shown.
No.	molecule	TRPV1 potentiator	Six1-Eya2 blk	TRPML1 agonist	TRPML1 inh	CtBP-E1A inh	D2 PAM
1	Cn1c(SCC(=O)NCC2CCCO2)nnc1-c1ccc(Cl)cc1 (stereo not drawn)	-2	6	-0.7	-10	·	-14
2	COc1nc(NC23CC4CC(CC(C4)C2)C3)nc(OC)n1	2	11	3.4	23	-10	5
3	O=C(Cc1ccccc1F)OCN1C(=O)c2ccccc2C1=O	-14	1	0.3	4	6	6
4	Cc1ccc2[nH]c(=O)c(Cc3ccccc3)c(O)c2c1	7	7	-0.3	-4	·	-11
5	N#C/C(=C\c1cccs1)C(=O)NCc1ccccc1	0	-6	-0.5	9	5	-11
6	O=C(/C=C/c1ccccc1)Nc1ncn[nH]1	-5	7	-0.8	0	-24	-11
7	Cc1ccc(NC(=O)C2CCN(c3ncnc4c3nc3n4CCCCC3)CC2)nc1	17	-8	0.8	3	·	-2
8	Cc1cccc(NC(=O)c2ccc(Cl)c(S(=O)(=O)N3CCCCC3)c2)n1	-10	-8	-0.6	6	-4	0
9	COCCN1C[C@@H](CO)O[C@@H](n2cnc3c(NC4CCC4)ncnc32)C1	·	4	-0.5	·	4	-4
10	O=C(COC(=O)c1cccnc1Nc1ccccc1F)NCCN1C(=O)CSC1=O	14	-15	0.9	8	-9	-13

# Taken from above.
# For D2 PAM, no. 9 shows -4
# For CtBP-E1A inh, no. 8 shows -4
# For Six1-Eya2 blk, no. 7 shows -8
# For TRPV1 potentiator, no. 6 shows -5
# For D2 PAM, no. 10 shows -13
# For CtBP-E1A inh, no. 2 shows -10

# Further records.
No.	molecule	TRPV1 potentiator	Six1-Eya2 blk	TRPML1 agonist	TRPML1 inh	CtBP-E1A inh	D2 PAM
11	Cc1ccc(C(=O)/C=C\C(=O)c2ccc(C)cc2)cc1	-11	0	1.3	3	5	-21
12	CC(=O)NC(c1ccc(F)c(F)c1)c1nc(-c2cccs2)cs1 (stereo not drawn)	·	-4	-0.6	·	4	5
13	Cc1cccc(N/C(=N\S(=O)(=O)c2ccccc2)C(F)(F)F)c1	7	6	-0.6	8	0	3
14	Cc1ccc(S(=O)(=O)CC2CSc3nc4ccccc4n32)cc1 (stereo not drawn)	?	2	0.3	-2	6	-11
15	Cn1c(=O)c2ncn(CC(=O)Nc3cccc(-c4nc5ccccc5s4)c3)c2n(C)c1=O	0	-3	3.8	38	-23	-8
16	COc1cccc(/C=N/n2c(=S)n(C)c3ccccc32)c1OC	-17	0	-0.1	26	2	-17
17	O=C(COc1ccccc1)NC1CCCCCCC1	-33	9	1.0	-1	3	-13
18	O=C(NCc1ccccn1)C1CCCN(Cc2cnn(-c3ccccc3)c2-n2cccc2)C1 (stereo not drawn)	4	-1	3.8	-13	-4	-7
19	O=[N+]([O-])c1cc(Cl)ccc1N1CCN(c2ccccc2O)CC1	-11	-27	-0.3	20	-24	-2
20	CCOC(=O)c1ccccc1NC(=O)/C=C/c1cc(OC)c(OC)c(OC)c1	-2	20	2.6	12	-1	-32
21	Cn1c(CNC(=O)CCNC(=O)c2ccc(F)c(F)c2)cc(=O)n(C)c1=O	-11	5	-0.9	9	-8	-6
22	Cc1ccc(NC(=O)CN(C)CC(=O)Nc2ccc(N3CCOCC3)cc2)c(C)c1	-8	-2	-0.7	-2	0	-9
23	CSc1ncccc1C(=O)Nc1cccc(S(=O)(=O)N2CCOCC2)c1	·	-6	2.8	9	3	0
24	O=C(Cn1c(=O)oc2ccccc21)N(Cc1ccccc1)C1CCS(=O)(=O)C1 (stereo not drawn)	-5	-3	-1.0	-14	2	-5
25	Nc1nc2c(ncn2C2C[C@H](O)[C@@H](CO)O2)c(=O)[nH]1 (stereo partly drawn)	-5	3	0.1	10	4	-8
26	CC(OC(=O)C1CCN(c2ccc(C(F)(F)F)cn2)CC1)C(=O)NC1CCCCC1C (stereo not drawn)	1	-1	1.6	20	0	-10
27	CCOC(=O)C1=CCN(S(=O)(=O)c2cccc(Cl)c2)C1c1ccc(Br)cc1 (stereo not drawn)	·	11	0.2	·	10	-3
28	Cc1cc(Cl)ccc1OCC(=O)NCCOc1nc(N2CCOCC2)nc(N2CCOCC2)n1	14	-2	-1.1	28	1	-5
29	COc1ccc(NC(=O)C(CCS(C)(=O)=O)NC(C)=O)cc1 (stereo not drawn)	1	0	-0.9	4	2	-5
30	O=C(O)COc1ccccc1/C=N/NC(=O)Cc1csc(Nc2cccc(C(F)(F)F)c2)n1	3	-13	-0.1	-6	-10	-1
31	COc1ccc(-c2noc(CCC(=O)N3CCN(c4ccccc4F)CC3)n2)cc1	·	9	-0.8	-12	1	-4
32	CCCc1ccc(S(=O)(=O)N2CCN(Cc3ccco3)CC2)cc1	-27	-1	2.6	-12	-5	-15
33	COc1cc(C(=O)Oc2cc(N)n(S(=O)(=O)c3ccc(F)cc3)n2)cc(OC)c1OC	8	-9	-1.6	-5	24	-2
34	O=C1NCCOC(=O)[C@@H](Cc2ccc(F)cc2)CC/C=C/C[C@H]1CC(=O)N(CCO)Cc1ccccc1	·	-2	-0.9	-16	2	·
35	Cc1cc(C)c(C)c(S(=O)(=O)Nc2ccccc2C(=O)O)c1C	3	-2	2.2	11	0	4
36	CCOC(=O)c1c(S(=O)(=O)Nc2ccccc2OCC)c(C)n(C)c1C	-5	3	-1.0	21	2	-2
37	CC(C)Oc1ccc(C(=O)Nc2cc(S(=O)(=O)N3CCOCC3)ccc2N2CCOCC2)cc1	5	2	-0.5	-15	9	-6
38	O=C(CNc1ccccc1)N/N=C/c1ccc2c(c1)OCCO2	6	1	0.2	-1	-4	6
39	OCC1OC(n2cnc3c(SCc4ccccc4)ncnc32)C(O)C1O (stereo not drawn)	·	1	-0.2	-20	5	-10
40	CCOC(=O)N1CCC(N2C(=O)c3ccccc3C2Nc2c(C)cccc2C)CC1 (stereo not drawn)	-18	-2	0.1	0	6	-8
41	CC(NC(=O)CCc1nc2cc(S(=O)(=O)N3CCOCC3)ccc2n1C)c1ccc(S(N)(=O)=O)cc1 (stereo not drawn)	-8	4	0.3	-17	-10	20
42	O=C(Nc1ccccc1)Nc1ccccc1C(=O)NCc1ccccc1	4	2	-0.5	0	2	-10
43	Cc1ccc(NC(=O)COC(=O)CCC2CCCC2)c(Br)c1	-11	57	3.2	9	-4	-10
44	Cc1ccc(C(O)c2ncc(-c3cccc(C(F)(F)F)c3)[nH]2)c(C)c1 (stereo not drawn)	·	-18	-0.5	·	-1	-6
45	CN(C)c1ccc(-c2ccc3oc(-c4ccsc4)cc(=O)c3c2)cn1	·	8	0.6	-13	-29	-4
46	CCCc1nccn1S(=O)(=O)c1cc(OC)ccc1OC	7	2	-0.2	2	-5	-1
47	O=C1CN(c2ccccc2)C(=O)N1	11	4	-0.2	39	10	-9
48	NC(=O)c1ccccc1N=Cc1cccnc1	·	-3	1.3	-5	3	-4
49	Cc1nn(-c2ccccc2)c(Cl)c1/C=N/NC(=O)c1nn(C)cc1[N+](=O)[O-]	1	-10	4.1	1	·	-10
50	CC1CC(C)(C)CC2(C1)NC(=O)N(CC(=O)Nc1ccc3c(c1)OCO3)C2=O (stereo not drawn)	·	2	-0.4	-2	5	-3

# Part of the list above, with each value named:
(48) NC(=O)c1ccccc1N=Cc1cccnc1
  TRPV1 potentiator = · | Six1-Eya2 blk = -3 | TRPML1 agonist = 1.3 | TRPML1 inh = -5 | CtBP-E1A inh = 3 | D2 PAM = -4
(47) O=C1CN(c2ccccc2)C(=O)N1
  TRPV1 potentiator = 11 | Six1-Eya2 blk = 4 | TRPML1 agonist = -0.2 | TRPML1 inh = 39 | CtBP-E1A inh = 10 | D2 PAM = -9
(42) O=C(Nc1ccccc1)Nc1ccccc1C(=O)NCc1ccccc1
  TRPV1 potentiator = 4 | Six1-Eya2 blk = 2 | TRPML1 agonist = -0.5 | TRPML1 inh = 0 | CtBP-E1A inh = 2 | D2 PAM = -10

# Returning to the listing with the four entries that preceded the break.
No.	molecule	TRPV1 potentiator	Six1-Eya2 blk	TRPML1 agonist	TRPML1 inh	CtBP-E1A inh	D2 PAM
47	O=C1CN(c2ccccc2)C(=O)N1	11	4	-0.2	39	10	-9
48	NC(=O)c1ccccc1N=Cc1cccnc1	·	-3	1.3	-5	3	-4
49	Cc1nn(-c2ccccc2)c(Cl)c1/C=N/NC(=O)c1nn(C)cc1[N+](=O)[O-]	1	-10	4.1	1	·	-10
50	CC1CC(C)(C)CC2(C1)NC(=O)N(CC(=O)Nc1ccc3c(c1)OCO3)C2=O (stereo not drawn)	·	2	-0.4	-2	5	-3
51	CC(C)CNC(=O)C1Nc2ccccc2C2C=CCC12 (stereo not drawn)	·	-2	-0.2	-1	-2	1
52	COc1ccccc1C(=O)NC(=O)COC(=O)C1CCC1	16	8	0.8	-9	13	13
53	CC(C)c1nc(C#N)c(NCCCn2ccnc2)o1	-15	17	-0.8	36	0	-10
54	COc1ccc(-c2nc3cc(C)c(Br)c(C)n3c2Cc2ccccc2)cc1OC	·	-12	0.1	·	-17	-1
55	O=C(CNC(=O)c1ccc(Cl)cc1Cl)OCc1nnc(-c2ccccc2Br)o1	·	0	2.9	8	-12	-8
56	NC(=O)c1ccc(NC(=O)CCc2nc3ccccc3s2)cc1	-15	-2	0.3	21	-11	-6
57	CCOC(=O)N1CCN(c2nc(-c3ccccc3)c3cc(C)ccc3n2)CC1	-18	25	1.6	5	·	-6
58	Fc1ccc(NC(=S)N2CCCc3ccccc32)cc1	3	-22	-0.5	6	-7	10
59	COc1cccc(C(=O)CC(=O)C(=O)Nc2cc(OC)ccc2OC)c1	-9	-7	-0.3	22	-4	2
60	Cc1onc(-c2ccccc2Cl)c1C(=O)OCc1cnc(Cl)s1	-1	30	2.5	12	-2	-9
61	COc1ccc(C(=O)/C=C/Nc2ccc(S(=O)(=O)Nc3onc(C)c3C)cc2)cc1	10	?	-0.9	16	?	14
62	CCOC(=O)c1sc2nc(SC)nc(-c3ccccc3)c2c1N	-20	11	-0.9	-2	14	0
63	O=C(NCCCN1CCOCC1)c1c(O)c2cc(Br)cc(Br)c2[nH]c1=O	1	16	-0.6	-1	0	-12
64	Cc1ccc(C(C)C)cc1C(=O)CC1(O)C(=O)N(C)c2ccccc21 (stereo not drawn)	0	16	1.5	-7	0	-23
65	S=C(NCc1ccco1)N1CCN(Cc2ccc(Cl)cc2Cl)CC1	-19	-22	-1.2	-5	-9	-22
66	CCC(c1nnnn1-c1ccc2c(c1)OCCO2)N1CCN(c2ccc(C(F)(F)F)cc2[N+](=O)[O-])CC1 (stereo not drawn)	·	-21	-0.5	·	-2	·
67	O=C(c1cc(F)ccc1F)N1CCC(N2CCC(C(=O)N3CCCC3)CC2)CC1	-8	20	0.6	-2	4	10
68	CC(C)(C)c1nc(NCCO)c2nnn(Cc3ccccc3)c2n1	-12	-2	0.3	27	-1	-2
69	CCC1CCCCN1C(=O)CSc1nc(N)cc(=O)[nH]1 (stereo not drawn)	3	5	-0.3	-11	0	-9
70	O=C(O)CNC(=S)N(Cc1ccccc1F)C1CCCCC1	-2	5	-0.6	-2	2	0

# Results in sequence from the entries so far.
# TRPML1 inh for nos. 61 to 70 → 16, -2, -1, -7, -5, ·, -2, 27, -11, -2
